Rango-impB inh: inhibitors of Rango-importin beta complex formation; Rango CFP/YFP FRET sensor + importin beta, 45 min; Potency, µM (series often up to 92.2 µM), for the others: at the highest dose inhibition of complex formation; hit rate 0.031% among 340,000; AID 540263; active = rising FRET ratio curve, often small or poorly fitted; inconclusive = mostly compound fluorescence or quenching in the first reads; inactive = flat curves in all reads;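 also: potency is read from the fitted curve at half-maximal effect; 0% = DMSO wells and 100% = buffer wells lacking importin beta; nearly all actives have a fitted effect of over 15% in size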
Target sequence (Q14974 whole entry, looked up): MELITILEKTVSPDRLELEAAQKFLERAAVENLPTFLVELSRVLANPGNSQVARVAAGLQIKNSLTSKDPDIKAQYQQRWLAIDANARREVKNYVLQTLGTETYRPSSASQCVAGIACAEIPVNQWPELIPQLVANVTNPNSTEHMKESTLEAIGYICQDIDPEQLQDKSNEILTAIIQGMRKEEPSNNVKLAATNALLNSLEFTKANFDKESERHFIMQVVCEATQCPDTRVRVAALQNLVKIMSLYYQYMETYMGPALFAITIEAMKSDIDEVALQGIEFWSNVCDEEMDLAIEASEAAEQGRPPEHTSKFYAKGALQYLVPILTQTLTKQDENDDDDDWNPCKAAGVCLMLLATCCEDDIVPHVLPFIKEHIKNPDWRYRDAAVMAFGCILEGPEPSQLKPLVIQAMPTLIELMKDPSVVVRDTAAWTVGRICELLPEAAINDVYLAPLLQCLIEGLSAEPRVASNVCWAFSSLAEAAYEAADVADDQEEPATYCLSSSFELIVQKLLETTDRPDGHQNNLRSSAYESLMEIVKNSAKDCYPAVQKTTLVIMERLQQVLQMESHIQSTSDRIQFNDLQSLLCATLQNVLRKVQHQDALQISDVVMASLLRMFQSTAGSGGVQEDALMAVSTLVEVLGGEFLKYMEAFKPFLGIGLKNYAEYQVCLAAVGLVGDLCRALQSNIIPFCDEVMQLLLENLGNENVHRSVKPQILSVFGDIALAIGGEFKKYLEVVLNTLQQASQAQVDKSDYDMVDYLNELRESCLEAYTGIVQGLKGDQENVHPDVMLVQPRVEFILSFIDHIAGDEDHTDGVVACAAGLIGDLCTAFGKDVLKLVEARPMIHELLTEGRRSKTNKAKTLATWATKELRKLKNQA
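FRET biosensor Rango (snurportin 1 IBB between N-terminal EYFP and C-terminal Cerulean), 50 nM in PBS/1 mM DTT/0.02% Tween-20/0.1% BSA, preincubated 5 min RT with compound; 0.125 microM importin beta added, 45 min RT, CFP/YFP FRET ratio read.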
Rango release inh: inhibition of RanGTP-driven Rango-importin beta dissociation. Potency, µM (doses to about 46.1 µM), without a hit: top-dose activity change, negative = inhibition. hit rate 0.071% among 340,000. O95149+P62826. Biochemical FRET Rango-importin beta, RanGTP-induced dissociation; active means falling FRET ratio curve, often poorly fitted, with flat reads before Ran was added; inconclusive means other falling curves, or compound fluorescence or quenching; inactive means flat or rising ratio curve;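 also: potency is read from the fitted curve at half-maximal effect; % of control where 0% means no effect; nearly all actives have a fitted effect of over 45% in size; -100% = wells without RanGTP and RCC1; the record marks most hits as doubtful in a second field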
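Rango/importin beta premix (0.1/0.25 uM final), PBS + 1 mM DTT + 0.02% Tween-20 + 0.1% BSA; cpd 5 min RT; FRET pre-read; + RanGTP-RCC1 (0.6 uM Ran, 2 mM GTP, 0.2 uM RCC1); 45 min RT; FRET post-read, ex 430, em 486/530 nm.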
GLA inh pH 4.5: blocks human alpha-galactosidase A at pH 4.5; activity change, negative = inhibition, % at 105 µM; 230,000 tested, under 10 active; purified enzyme, 4-MU-alpha-Gal fluorescence, pH 4.5; P06280; AID 1467; inconclusive = small, poorly fitted or top-dose-only inhibition, or a rising curve; inactive = flat fitted curve, though single readings scatter; no compound was filed as active;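 also: 0% = full activity with enzyme and -100% = basal without enzyme; dose as in the result columns while the protocol names 77 µM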
miR-21 reporter: raises the signal of a miR-21 reporter | AID 2288 | HeLa miR-21 FLuc reporter, luciferase, 48 h | Potency, µM (series often up to 38.3 µM), for inactives: top-dose reporter change, positive = more light | 340,000 tested, under 10 active; active = well fitted rising curve with a large enough effect; inconclusive = small, poorly fitted or top-dose-only effect; inactive = no such curve, though single readings can be large or run the other way;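 also: % of control where 0% means no effect; miR-21 action dims this reporter so a rising signal means less miR-21 action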
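HeLa miR-21-FLuc reporter line, endogenous miR-21; 2000 cells/well in DMEM/10% FBS; compound titration up to ~40uM final, 48 h, 37 degree Celsius; luciferase detection reagent, 15 min lysis, CCD luminescence.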
The depositor's hits bear a star; ? = inconclusive; . = not tested or not shown; & = joins results of further samples; [ ] = remark or other dose. Not all compounds are listed (hit frequency here may not be typical).

| SMILES | Rango-impB inh | Rango release inh | GLA inh pH 4.5 | miR-21 reporter |
| --- | --- | --- | --- | --- |
| CS(=O)(=O)N1N=C(c2ccccc2)CC1c1ccc2nccnc2c1 (centres undefined) | -1.8% | -18% | -1 | -23% |
| O=S(=O)(c1ccc2ccccc2c1)N1CCCCC1 | 0.7% | 3% | -1 | -13% |
| Cc1cccc(NC(=O)C2CCN(S(=O)(=O)c3cccc4nonc34)CC2)c1 | 0.8% | 6% | . | 6% |
| CCC(CC)C(=O)N1CCN(c2cccc(C)c2C)CC1 | -2.6% | 0% | 0 | 24% |
| O=C(Nc1ccccc1Cl)c1cc[n+]([O-])cc1 | 5.1% | 1% | . | 0% |
| COC(=O)C1=C(C)N(Cc2ccccc2)C(=NCc2ccc(OC)cc2)N[C@H]1c1ccccc1 | ? | -1% | . | 18% |
| COc1ccc(CN=C(Nc2ccccc2)SC2CC(=O)NC2=O)cc1 (centres undefined) | 0.5% | -9% | 1 | -27% |
| CCOC(=O)c1csc(NC(=O)C2=COCCO2)n1 | -1.8% | ? | . | -29% |
| CCC(c1nnnn1CCc1ccccc1)N(Cc1ccco1)Cc1cc2c(C)ccc(C)c2[nH]c1=O (centres undefined) | 6.0% | -5% | -3 | 23% |
| COCCN1C(=O)N[C@@H](CCc2ccccc2)[C@H](C(C)=O)[C@H]1C | -0.5% | 30% | 2&-1 | 7% |
| CC1CCN(CCCNC(=O)CN2CCN(Cc3ccc(Cl)cc3)C2=O)CC1 | -1.6% | -10% | 15 | 0% |
| Cn1c(SCC(=O)OC2CCCCC2)nnc1-c1ccc(S(=O)(=O)N2CCCC2)cc1 | 11% | 3% | -4 | -1% |

Remaining list, next part:
| SMILES | Rango-impB inh | Rango release inh | GLA inh pH 4.5 | miR-21 reporter |
| --- | --- | --- | --- | --- |
| CCS(=O)(=O)c1ccc(-c2csc(-c3ccc(Cl)cc3)n2)c(Cl)c1Cl | 0.6% | 6% | -8 | -10% |
| Cc1cc(CNC(=O)Nc2ccc3c(c2)OCO3)nn1C | 2.1% | 26% | 5 | -37% |
| CC(C)N(C(=O)c1sc2cc([N+](=O)[O-])ccc2c1Cl)C(C)C | -1.1% | 1% | 0 | -6% |
| COc1cccc(NC(=O)CN2C(=O)NC(C)(c3ccc(C)cc3)C2=O)c1 (centres undefined) | 0.0% | 17% | . | 2% |
| Clc1cccc(Cl)c1OCCOCCNCc1ccccc1 | 0.3% | -18% | . | 8% |
| O=C(C1=C[C@@H](c2ccccc2)C[C@@H](OCCCCO)O1)N1CCOCC1 | -0.2% | 14% | -3 | -4% |
| CCCCN(CCCC)CCNC(=O)CN1C(=O)CSc2ccc(S(=O)(=O)N3CCOCC3)cc21 | -4.7% | 3% | . | -5%&-1% |
| CCCCNC(=O)C1(c2ccc(OC)cc2)CCOCC1 | 1.1% | 8% | -9 | -3% |
| Cc1ccc(C(=O)OC(C(=O)Nc2ccc(Cl)cc2C(F)(F)F)c2ccccc2)cc1 (centres undefined) | -0.4% | -12% | 4 | 0% |
| COc1ccccc1N1CCN(S(=O)(=O)c2ccc(-n3cnnn3)cc2)CC1 | -1.4% | 2% | . | -1%&9% |
| Cc1ccc(C(=O)COC(=O)c2cc(C)no2)c(C)c1 | -2.9% | -12% | . | . |
| CCN1CCN(C(=O)c2cc3cc(F)ccc3[nH]2)CC1 | 4.7% | 2% | . | -16% |

Next records
| SMILES | Rango-impB inh | Rango release inh | GLA inh pH 4.5 | miR-21 reporter |
| --- | --- | --- | --- | --- |
| O/N=C\c1ccc(-c2ccccc2)o1 | 3.5% | 4% | -1 | -56% |
| COc1ccccc1-c1ccc2nnc(SC)n2n1 | 0.1% | -13% | . | -14% |
| COc1ccc(C(=O)NCCC2=CCCCC2)cc1[N+](=O)[O-] | -1.8% | -8% | . | -35% |
| O=C(Nc1ccc(S(=O)(=O)Nc2nccs2)cc1)c1cc(-c2ccccn2)nc2ccccc12 | -2.0% | 0% | -3 | 0% |
| CCN(Cc1cc2ccccc2[nH]c1=O)S(=O)(=O)c1ccccc1 | -0.4% | 1% | 1 | 0% |
| NC1=NC(c2ccccc2)N=C(Nc2ccccc2)N1 (centres undefined) | . | . | -6 | 5% |
| Cc1sc2nc(CSc3ccc([N+](=O)[O-])c(C(F)(F)F)c3)[nH]c(=O)c2c1C | ? | -23% | -2 | -8% |
| O=C(Cc1cccc(NC(=O)C2CCN(S(=O)(=O)c3cccc([N+](=O)[O-])c3)CC2)c1)Nc1cccc(C(=O)N2CCOCC2)c1 | 0.2% | 2% | . | . |
| O=C(Nc1ccccc1[N+](=O)[O-])C1=C(O)CCn2c1nc1ccccc12 | 2.8% | 0% | 8 | -4% |
| Cc1ccc(S(=O)(=O)NOCc2ccccc2)cc1 | -0.8% | 1% | . | . |
| CCOc1ccc(NC(=O)CCNS(=O)(=O)c2cccc3nonc23)cc1 | 4.6% | 11% | . | 8%&-1% |
| COc1cccc(/C=C/C(=O)Nc2ccc(N3CCOCC3)cc2)c1OC | -3.1% | 2% | 5 | -41% |

Remaining list, next part.
| SMILES | Rango-impB inh | Rango release inh | GLA inh pH 4.5 | miR-21 reporter |
| --- | --- | --- | --- | --- |
| O=[N+]([O-])c1cc([N+](=O)[O-])c2oc(-c3ccccc3)c(Br)c2c1O | -0.5% | 3% | . | 22% |
| O=C(Nc1ccccc1)c1cccnc1N1CCOCC1 | 6.1% | 10% | 9 | -10% |
| COc1ccc(C(=O)NCCc2ccc(Cl)cc2)cc1S(=O)(=O)N1CCCCC1C (centres undefined) | 2.8% | 27% | . | . |
| CC(=O)c1c(C)oc2ccc(NS(=O)(=O)c3ccc(C(=O)O)cc3)cc12 | -1.5% | 4% | . | 6% |
| CCOC(=O)c1c(C)sc2c1N(C(=O)CCl)c1cc(Cl)ccc1S2 | -0.8% | 1% | 2 | ? |
| COc1ccc(-c2nc(CN3CCN(Cc4ccccc4)CC3)c(C)o2)cc1 | -3.3% | -2% | . | 4% |
| Cc1cccc(Cn2c(=O)c3c(nc4n3CCCN4Cc3ccccc3)n(C)c2=O)c1 | 5.5% | 8% | -12 | 1% |
| O=C(Nc1ccncc1)C1CCN(S(=O)(=O)c2ccccc2C(F)(F)F)CC1 | 0.6% | 3% | . | 16% |
| O=C(Nc1ccccc1)[C@@H]1CC=C[C@@H]2CCN(C3CCCCC3)C(=O)[C@@H]21 | -3.6% | -15% | . | . |
| CCOc1ccc(N(CC(=O)Nc2ccc(C)cc2)S(=O)(=O)c2c(C)[nH]c(=O)[nH]c2=O)cc1 | 3.5% | 5% | -6 | -1% |
| CC(=O)NCCc1csc(-c2ccccc2)n1 | -0.8% | 10% | 4 | -35% |
| CCOc1nc(C#N)nc(N2CCCCC2)n1 | 4.3% | 0% | -1 | 13% |

Other records:
| SMILES | Rango-impB inh | Rango release inh | GLA inh pH 4.5 | miR-21 reporter |
| --- | --- | --- | --- | --- |
| CC(C)c1nnc(NC(=O)CCC(=O)NCc2ccccc2Cl)s1 | -3.8% | 29% | . | -1% |
| C=CCN(Cc1ccc(Cl)s1)C(=O)CNC(=O)CNC(=O)c1ccc(Cl)cc1Cl | 5.1% | 15% | . | . |
| CC(C(=O)NC1C(=O)N2C(C(=O)O)=C(CSc3nnnn3C)CSC12)n1cc(Cl)cn1 (centres undefined) | 0.2% | 1% | -7[21.1 µM] | -2% |
| CCOC(=O)N1CCN(C(=O)c2csc3c2CCCCC3)CC1 | 13% | 2% | -2 | -5% |
| Nc1nn2c(-c3ccccc3)cc(=O)[nH]c2c1N=Nc1ccc(O)cc1 | -5.3% | -22% | 3 | -14% |
| Cc1ccc(C)n1-c1ccc(C(=O)N/N=C/c2ccncc2)cc1 | 2.9% | -1% | -2 | -12% |
| Cc1cc(NC(=O)CSc2n[nH]c(-c3cccs3)n2)no1 | -0.5% | 16% | -1 | 0% |
| CC(C)N(C(=O)Cc1ccccc1[N+](=O)[O-])C(C)C | 0.7% | 1% | . | -1% |
| Cc1ccc(NC(=S)NCc2ccccn2)cc1 | 0.7% | 1% | 10 | -27% |
| N#C/C(=C(/O)c1cc2ccccc2o1)c1nc2ccccc2s1 | ? | ? | -2 | -2% |
| COCc1nc2sc3c(c2c(=O)[nH]1)CCCC3 | 6.4% | 18% | 2 | -46% |
| CCCCc1nnc(NC(=O)CSc2nc(C)cc(=O)[nH]2)s1 | 0.0% | 5% | 7 | -1% |

Arranged by heavy-atom count (highest first): some entries from above.
| SMILES | Rango-impB inh | Rango release inh | GLA inh pH 4.5 | miR-21 reporter |
| --- | --- | --- | --- | --- |
| Cc1cccc(Cn2c(=O)c3c(nc4n3CCCN4Cc3ccccc3)n(C)c2=O)c1 | 5.5% | 8% | -12 | 1% |
| Cc1ccc(C(=O)COC(=O)c2cc(C)no2)c(C)c1 | -2.9% | -12% | . | . |
| Cc1ccc(NC(=S)NCc2ccccn2)cc1 | 0.7% | 1% | 10 | -27% |

(list continues)
| SMILES | Rango-impB inh | Rango release inh | GLA inh pH 4.5 | miR-21 reporter |
| --- | --- | --- | --- | --- |
| CCOc1ccc(S(=O)(=O)N2CCC(C(=O)NCc3ccncc3)CC2)cc1 | 0.3% | -2% | . | 0% |
| CC(C)c1ccc(OCc2ccc(C(=O)N(C)C)o2)cc1 | 0.2% | 1% | . | -43% |
| CCC(c1n[nH]c(=S)n1-c1ccccc1)N(C)C (centres undefined) | 0.4% | 4% | -6 | -13% |
| Cc1ccccc1C(=O)Nc1c(C(=O)N2CCCC2)cnn1-c1ccccc1 | -0.5% | -11% | -7 | -4% |
| COCCNC(=O)Cn1ncc2ccsc2c1=O | 5.6% | 24% | -3 | -1% |
| O=C(NCCCNC1CCCCC1)c1ccc(/C=N/O)nc1 | 0.1% | 1% | -4 | -1% |
| CCOc1ccc(NC2=CC(=O)C(=O)c3ccccc32)cc1 | -2.4% | 16% | . | . |
| CCCCCCCCc1nc(SC(C)C(=O)O)n[nH]1 (centres undefined) | 11% | 4% | -6 | -1% |
| CCNC(=S)N1CCN(Cc2ccc3c(c2)OCO3)CC1 | -2.1% | 0% | 5 | -1% |

Entries listed so far that contain a halogen, in the order listed:
| SMILES | Rango-impB inh | Rango release inh | GLA inh pH 4.5 | miR-21 reporter |
| --- | --- | --- | --- | --- |
| O=C(Nc1ccccc1Cl)c1cc[n+]([O-])cc1 | 5.1% | 1% | . | 0% |
| CC1CCN(CCCNC(=O)CN2CCN(Cc3ccc(Cl)cc3)C2=O)CC1 | -1.6% | -10% | 15 | 0% |
| CCS(=O)(=O)c1ccc(-c2csc(-c3ccc(Cl)cc3)n2)c(Cl)c1Cl | 0.6% | 6% | -8 | -10% |
| CC(C)N(C(=O)c1sc2cc([N+](=O)[O-])ccc2c1Cl)C(C)C | -1.1% | 1% | 0 | -6% |
| Clc1cccc(Cl)c1OCCOCCNCc1ccccc1 | 0.3% | -18% | . | 8% |
| Cc1ccc(C(=O)OC(C(=O)Nc2ccc(Cl)cc2C(F)(F)F)c2ccccc2)cc1 (centres undefined) | -0.4% | -12% | 4 | 0% |
| CCN1CCN(C(=O)c2cc3cc(F)ccc3[nH]2)CC1 | 4.7% | 2% | . | -16% |
| Cc1sc2nc(CSc3ccc([N+](=O)[O-])c(C(F)(F)F)c3)[nH]c(=O)c2c1C | ? | -23% | -2 | -8% |
| O=[N+]([O-])c1cc([N+](=O)[O-])c2oc(-c3ccccc3)c(Br)c2c1O | -0.5% | 3% | . | 22% |
| COc1ccc(C(=O)NCCc2ccc(Cl)cc2)cc1S(=O)(=O)N1CCCCC1C (centres undefined) | 2.8% | 27% | . | . |
| CCOC(=O)c1c(C)sc2c1N(C(=O)CCl)c1cc(Cl)ccc1S2 | -0.8% | 1% | 2 | ? |
| O=C(Nc1ccncc1)C1CCN(S(=O)(=O)c2ccccc2C(F)(F)F)CC1 | 0.6% | 3% | . | 16% |
| CC(C)c1nnc(NC(=O)CCC(=O)NCc2ccccc2Cl)s1 | -3.8% | 29% | . | -1% |
| C=CCN(Cc1ccc(Cl)s1)C(=O)CNC(=O)CNC(=O)c1ccc(Cl)cc1Cl | 5.1% | 15% | . | . |
| CC(C(=O)NC1C(=O)N2C(C(=O)O)=C(CSc3nnnn3C)CSC12)n1cc(Cl)cn1 (centres undefined) | 0.2% | 1% | -7[21.1 µM] | -2% |

High-throughput results deposited in PubChem by National Center for Advancing Translational Sciences (NCATS).
